Screening data as filed in PubChem.
BJeLR lethal: MLPCN primary cell-based screen for lethality selective to Ras in HRASV12 cells; BJeLR (HRASV12) viability, CellTiter-Glo ATP luminescence, 48 h; reference of the scale not given here; inhibition, % (test concentration not listed); 0.17% of 300,000 active;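 active = replicate mean above 50%; inconclusive = above 50% but judged a plate artefact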;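 note: 50 nL library stock added to about 25 µL; numbers are from one replicate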
ugtP null kill: growth inhibition of ugtP-null S. aureus, primary screen, RN4220 ugtP deletion, OD600; 16 h; some inactives read as strong as hits; growth inhibition, % (no concentration beside the values); 0.54% of 330,000 active;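 active = z-score under -3 and OD600 up to 0.15 on both plates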;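 note: plate controls were untreated wells for no effect and antibiotic for full effect; wells of about 80 µL received 100 nL stock; the first replicate is given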
RN4220 kill: growth inhibition of S. aureus RN4220, primary screen, OD600; 16 h; inhibition, % (no concentration beside the values); 0.33% of 330,000 active;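 active = z-score of -3 or lower and OD600 up to 0.18 on both plates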;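 note: plate controls were untreated cells for no effect and reference antibiotic for full effect; stock transfer was 100 nL into about 80 µL; one replicate is shown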
Mtb hypoxia rep: PubChem AID 1159583; 0.1% of 300,000 active; M. tuberculosis hypoxia-regulated fluorescent reporter, fluorescence; fluorescence inhibition, % (concentration not given with the values);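 active = 35 to 45% if threefold the growth effect, above 45% if 1.5-fold the growth effect; inactive = the rest, general growth blockers included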;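 note: wells of about 50 µL received 100 nL stock; 0% = vehicle wells and 100% = reference inhibitor wells; whole bacteria with a GFP reporter of the hypoxia response; strong numbers were not always called active; many hits fall short of the cut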
Autofluor counter: flagged as autofluorescent in microsphere protease counterscreen | 3.1% of 360,000 active | compound autofluorescence counterscreen, microsphere flow cytometry; hits give high values | fluorescence intensity (concentration not given with the values);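 active = at least 3 SD above the mean of all compounds, about 16000 in these data; inconclusive = too few beads counted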;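 note: 100 nL of 1 mM stock went into each well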
PrP UTR inh: inhibition of PrP 5' UTR reporter expression. cell-based PrP 5' UTR mRNA reporter, plate reader. inhibition, % (concentration not given with the values). 0.35% of 340,000 active. AID 488862, 2010;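 active = every replicate at 50% or more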;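 note: 0 = median of the neutral control wells; tested in H4 reporter cells; numbers are from one replicate; inactives centre near -14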
Mtb hypoxia rep growth: further read-out of Mtb hypoxia rep, marked with its call; growth inhibition, %; measured here: M. tuberculosis growth (absorbance);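 0% = vehicle and 100% = reference antibiotic; read after six days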
Active calls of the source: *; ? = inconclusive; / = not tested or not shown.

cpd	mol	BJeLR lethal	ugtP null kill	RN4220 kill	Mtb hypoxia rep	Mtb hypoxia rep growth	Autofluor counter	PrP UTR inh
1	COc1ccc(CCN(C)C(=O)C2CCN(Cc3ccc(C)cc3)CC2)cc1OC	-16	1	4.6	11	4	4759	5
2	CCOC(=O)N1CCN(C(=O)Cn2ncn3nc(-c4cccs4)cc3c2=O)CC1	-9	0	4.0	2	3	/	-20
3	Cc1ccc(C2(C)NC(=O)N(CC(=O)Nc3ccc4c(c3)CCC4)C2=O)cc1 (stereo not drawn)	/	1	-2.4	8	-6	6623	-9
4	CS(=O)(=O)N(CC(N)=O)c1ccc(F)c(Cl)c1	-9	7	3.9	/	/	2676	-27
5	COCCn1nnnc1CN(CCc1ccc(OC)c(OC)c1)Cc1cc2ccc(C)cc2[nH]c1=O	-7	-3	-5.1	-5	-3	/	1
6	CSCCC(NC(=O)c1ccccc1Cl)C(=O)N1CCCCCCC1 (stereo not drawn)	/	-1	-1.0	12	3	3509	-5
7	O=C(Nc1nc(-c2ccccc2)cs1)c1ccco1	11	-10	7.4	11	11	/	-46
8	O=C(O)CSc1nnc(COc2ccc(Br)cc2)n1-c1ccccc1	-3	/	/	/	/	3160	-20

(continued)
cpd	mol	BJeLR lethal	ugtP null kill	RN4220 kill	Mtb hypoxia rep	Mtb hypoxia rep growth	Autofluor counter	PrP UTR inh
9	Fc1ccccc1C=Nn1c(C2CCCCC2)n[nH]c1=S	/	0	3.3	4	9	/	/
10	Oc1c(C=Nc2ccccc2)sc2ccccc12	7	0	3.8	8	16	3081	-57
11	Cc1ccccc1NCCNc1ccccc1C	8	11	5.1	12	-1	7676	-17
12	Cc1ccc(S(=O)(=O)NC(C)C(=O)NC(C)c2cccs2)cc1 (stereo not drawn)	-4	-3	-3.7	0	-7	3772	-10
13	CCN(CC)CCNC(=O)c1c(C)oc2cc(Br)c(OC)cc12	/	3	-0.1	2	3	21610*	-13
14	O=C(c1ccc(Cl)cc1)N1CCN=C1c1ccccc1	6	5	6.8	2	12	2763	-5
15	O=C(CN(C(=O)CNC(=O)c1ccco1)c1ccc2c(c1)OCCO2)NC1CCCCC1	-6	5	1.8	-6	4	4167	-22
16	O=C(NCCS(=O)(=O)N1CCCCCC1)c1ccccc1	8	8	2.2	9	1	?	-20

Remaining list, next part
cpd	mol	BJeLR lethal	ugtP null kill	RN4220 kill	Mtb hypoxia rep	Mtb hypoxia rep growth	Autofluor counter	PrP UTR inh
17	NCCSC1CC(=O)N(c2ccc(F)cc2)C1=O (stereo not drawn)	6	1	4.5	13	6	3480	-10
18	CCOC(=O)N1CCC(NC(=O)CSCc2nc(-c3cccc(OC)c3)oc2C)CC1	-6	-6	5.2	11	6	10665	-20
19	O=C(Nc1ccc(N2CCN(C(=O)c3ccco3)CC2)cc1)c1cc(Br)ccc1Cl	/	4	7.4	2	7	4020	-19
20	Cc1cc(C)n(C(=O)CNc2ccc(C)c(C)c2)n1	-2	3	0.9	/	/	2403	-18
21	CCCCC12CN3CCN(CC(C3)/C1=N\NC(=O)Nc1ccccc1)C2	5	/	/	/	/	2579	-10
22	O=C(NC1CCCCC1)NC1CCN(C(=S)NCc2ccco2)CC1	8	10	2.7	18	2	8110	5
23	CC1CCC(NC(=O)COC(=O)c2ccco2)CC1 (stereo not drawn)	/	8	4.5	0	6	4100	-11
24	O=C(C1=NN[C@@H]2C(=O)N(c3ccccc3C(F)(F)F)C(=O)[C@H]12)c1ccc2ccccc2n1	2	13	4.1	9	-4	2403	-7

Next section.
cpd	mol	BJeLR lethal	ugtP null kill	RN4220 kill	Mtb hypoxia rep	Mtb hypoxia rep growth	Autofluor counter	PrP UTR inh
25	O=C(O)Cn1c(=S)sc2ccccc21	2	1	8.4	5	5	3817	-14
26	CCc1ccc(C(=O)NNC(=O)C2CSC3(C)CCC(=O)N23)cc1 (stereo not drawn)	3	3	-0.5	8	10	?	-7
27	COc1ccc(-c2cn[nH]c2-c2ccc(OC)cc2O)cc1	-1	-1	-3.3	-15	-1	3709	-2
28	Cc1oc2c(C)c3oc(=O)c(CCC(=O)N4C[C@H]5C[C@@H](C4)c4cccc(=O)n4C5)c(C)c3cc2c1C	10	-14	6.5	/	/	5338	-19
29	Cc1cccc(CNC(=O)Cn2ccc3cc(S(=O)(=O)N4CCCCCC4)ccc32)c1	-2	8	-4.8	-4	6	5419	11
30	O=C(CCc1nc(-c2ccccc2)no1)NCc1ccco1	/	5	-6.1	/	/	4955	4
31	COc1ccc(N(C(=O)COc2ccc(F)cc2)S(=O)(=O)c2ccc(C)cc2)cc1	3	6	2.6	6	7	2340	-17
32	CCOc1ccc(-c2cc(C(=O)N3CCC(C)CC3)c3ccccc3n2)cc1	13	6	3.7	7	7	15340	-29

More results follow.
cpd	mol	BJeLR lethal	ugtP null kill	RN4220 kill	Mtb hypoxia rep	Mtb hypoxia rep growth	Autofluor counter	PrP UTR inh
33	O=C(NCCN1CCc2ccccc2C1)C1CCN(S(=O)(=O)N2CCCCC2)CC1	2	2	-1.1	3	-2	7132	-10
34	CCOCCCNC(=O)C1CCN(C(=O)Nc2ccc(Cl)cc2)CC1	0	-1	-0.2	-2	6	5442	1
35	N/C(=N\OC(=O)Nc1ccc(Cl)cc1)c1ncc(C(F)(F)F)cc1Cl	-10	/	/	/	/	2866	-11
36	O=C(CCc1nnc(CCc2c[nH]c3ccccc23)o1)NC1CCC1	5	-2	4.4	-2	11	4326	-53
37	COc1ccc(NC(=O)CN(C)CC(=O)Nc2ccc3c(c2)CCC3)cc1	3	7	6.9	7	5	4719	-26
38	CC(=O)N1CCN(C(=O)c2cccc(S(=O)(=O)Nc3c(C)n(C)n(-c4ccccc4)c3=O)c2)CC1	/	6	1.6	-4	-1	5539	-13
39	CCOC(=O)C1CCN(C(=O)Cc2c(C(=O)O)[nH]c3ccccc23)CC1	-3	1	3.9	3	11	24498*	-16
40	CCCc1c(C)nc(N2CCN(c3ccc(F)cc3)CC2)[nH]c1=O	-1	1	-0.1	6	-1	3795	-12

New compounds follow.
cpd	mol	BJeLR lethal	ugtP null kill	RN4220 kill	Mtb hypoxia rep	Mtb hypoxia rep growth	Autofluor counter	PrP UTR inh
41	Cc1noc(N)c1C(=O)Nc1ccc(C(C)(C)C)cc1	1	1	4.7	1	10	3047	-88
42	O=C(CSc1ncnc2scc(-c3ccccc3)c12)NCc1ccc2c(c1)OCO2	-2	-10	-6.8	6	-9	2563	-18
43	Fc1ccccc1CNCCC(Cc1ccccc1)c1ccc2c(c1)OCO2 (stereo not drawn)	-3	-7	-0.1	-4	-1	2598	-4
44	Cc1cc(C)cc(C(=O)NC(CC(N)=O)c2ccc(NC3CCCCCCCCCCC3)c([N+](=O)[O-])c2)c1 (stereo not drawn)	-4	-7	-5.9	2	-8	3024	-7
45	O=c1cc(-c2ccccc2)nc2n1Cc1ccccc1-2	7	-11	8.8	18	2	11173	-3
46	Cc1cc(C)c2c(CN3CCN(C)CC3)cc(=O)oc2c1	-3	-3	-2.9	-9	0	16812*	-20
47	O=C(c1cccc([N+](=O)[O-])c1)N1CCN(c2cccc(Cl)c2)CC1	-2	-2	0.3	8	12	1967	-40
48	Cc1[nH]n(-c2ccccc2)c(=S)c1C=Nc1cccc([N+](=O)[O-])c1	-9	3	0.5	/	/	2794	-21

Other entries follow.
cpd	mol	BJeLR lethal	ugtP null kill	RN4220 kill	Mtb hypoxia rep	Mtb hypoxia rep growth	Autofluor counter	PrP UTR inh
49	Cn1c(=S)n(C)c2ccccc21	1	-4	2.1	1	8	3939	-14
50	C=C(C)C1CC=C(C)/C(=N/NC(=O)C2CC2c2ccccc2)C1 (stereo not drawn)	-6	/	/	/	/	4317	-25
51	Cc1ccc(C(=O)CCC(=O)NNC(=O)c2ccccc2O)cc1	/	3	2.8	12	4	/	/
52	CCN(CC)C(=O)COc1ccc2c(c1)C(=O)CC(C)(C)O2	-4	3	4.4	-9	4	3433	-17
53	N#Cc1c(-n2cccc2C=O)sc2c1CCCC2	1	0	1.6	2	16	3582	-21
54	CC(OC(=O)c1ccc(NC(=O)CC#N)cc1)C(=O)NC(c1ccccc1)c1ccccc1 (stereo not drawn)	/	6	5.9	6	11	3498	0
55	COc1cccc(/C=C/C(=O)c2ccc(NC3=NCCCS3)cc2)c1	3	19	-1.3	-7	-8	3559	-51
56	Cc1ccc(CNS(=O)(=O)/C=C/c2ccc3c(c2)OCO3)cc1	-4	-6	11	6	2	4059	-14

The list goes on.
cpd	mol	BJeLR lethal	ugtP null kill	RN4220 kill	Mtb hypoxia rep	Mtb hypoxia rep growth	Autofluor counter	PrP UTR inh
57	COc1ccccc1NC(=O)C(C)N(C)Cc1ccc(Cl)s1 (stereo not drawn)	-1	19	-0.1	11	12	5346	1
58	COc1ccc2c(c1)c(=O)oc1cc(OC(C(=O)O)c3ccccc3)ccc12 (stereo not drawn)	0	31	11	3	7	3684	-28
59	C=CCc1cccc(/C=N/NC(=O)C(C)Nc2cccc(C)c2)c1O (stereo not drawn)	3	/	/	/	/	2425	19
60	COc1ccccc1NC(=O)c1c(Br)cnn1C	2	6	5.4	10	10	2022	-15
61	Oc1ccc(N=Nc2ccc3c(c2)OCCO3)c2ncccc12	21	27	20	8	3	2881	31
62	Cc1nnc(SCCCn2c(N3CCN(c4ccccc4)CC3)nc3c2c(=O)[nH]c(=O)n3C)s1	/	-10	-2.3	/	/	3622	-7
63	Nc1cc(N)nc(SCC(=O)NNC(=O)c2ccc(Cl)cc2)n1	0	6	2.2	7	0	15456	-11
64	CC(C)[C@H](NC(=O)N1CCn2c1nc1ccccc12)C(=O)N[C@@H](C(=O)O)c1ccccc1	9	8	3.5	/	/	5684	-16
65	O=C(Cc1ccc(Cl)cc1)Nc1ccc(N2CCN(C(=O)c3ccco3)CC2)cc1	-6	6	0.4	/	/	3851	-17

In another format: 17 of the compounds above.
#46 Cc1cc(C)c2c(CN3CCN(C)CC3)cc(=O)oc2c1
#47 O=C(c1cccc([N+](=O)[O-])c1)N1CCN(c2cccc(Cl)c2)CC1
#48 Cc1[nH]n(-c2ccccc2)c(=S)c1C=Nc1cccc([N+](=O)[O-])c1
#49 Cn1c(=S)n(C)c2ccccc21
#50 C=C(C)C1CC=C(C)/C(=N/NC(=O)C2CC2c2ccccc2)C1 (stereo not drawn)
#51 Cc1ccc(C(=O)CCC(=O)NNC(=O)c2ccccc2O)cc1
#52 CCN(CC)C(=O)COc1ccc2c(c1)C(=O)CC(C)(C)O2
#53 N#Cc1c(-n2cccc2C=O)sc2c1CCCC2
#54 CC(OC(=O)c1ccc(NC(=O)CC#N)cc1)C(=O)NC(c1ccccc1)c1ccccc1 (stereo not drawn)
#55 COc1cccc(/C=C/C(=O)c2ccc(NC3=NCCCS3)cc2)c1
#56 Cc1ccc(CNS(=O)(=O)/C=C/c2ccc3c(c2)OCO3)cc1
#57 COc1ccccc1NC(=O)C(C)N(C)Cc1ccc(Cl)s1 (stereo not drawn)

screen / no. | 46 | 47 | 48 | 49 | 50 | 51 | 52 | 53 | 54 | 55 | 56 | 57
BJeLR lethal | -3 | -2 | -9 | 1 | -6 | / | -4 | 1 | / | 3 | -4 | -1
ugtP null kill | -3 | -2 | 3 | -4 | / | 3 | 3 | 0 | 6 | 19 | -6 | 19
RN4220 kill | -2.9 | 0.3 | 0.5 | 2.1 | / | 2.8 | 4.4 | 1.6 | 5.9 | -1.3 | 11 | -0.1
Mtb hypoxia rep | -9 | 8 | / | 1 | / | 12 | -9 | 2 | 6 | -7 | 6 | 11
Mtb hypoxia rep growth | 0 | 12 | / | 8 | / | 4 | 4 | 16 | 11 | -8 | 2 | 12
Autofluor counter | 16812* | 1967 | 2794 | 3939 | 4317 | / | 3433 | 3582 | 3498 | 3559 | 4059 | 5346
PrP UTR inh | -20 | -40 | -21 | -14 | -25 | / | -17 | -21 | 0 | -51 | -14 | 1

#58 COc1ccc2c(c1)c(=O)oc1cc(OC(C(=O)O)c3ccccc3)ccc12 (stereo not drawn)
#59 C=CCc1cccc(/C=N/NC(=O)C(C)Nc2cccc(C)c2)c1O (stereo not drawn)
#60 COc1ccccc1NC(=O)c1c(Br)cnn1C
#61 Oc1ccc(N=Nc2ccc3c(c2)OCCO3)c2ncccc12
#62 Cc1nnc(SCCCn2c(N3CCN(c4ccccc4)CC3)nc3c2c(=O)[nH]c(=O)n3C)s1

screen / no. | 58 | 59 | 60 | 61 | 62
BJeLR lethal | 0 | 3 | 2 | 21 | /
ugtP null kill | 31 | / | 6 | 27 | -10
RN4220 kill | 11 | / | 5.4 | 20 | -2.3
Mtb hypoxia rep | 3 | / | 10 | 8 | /
Mtb hypoxia rep growth | 7 | / | 10 | 3 | /
Autofluor counter | 3684 | 2425 | 2022 | 2881 | 3622
PrP UTR inh | -28 | 19 | -15 | 31 | -7
